High-throughput results: PubChem BioAssay, several laboratories
T cruzi inh: T. cruzi replication inhibition. T. cruzi beta-gal in NIH3T3, luminescence, 90 h. inhibition, % (no concentration beside the values). 1.4% of 300,000 active. AID 1885;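 active = mean inhibition across valid replicates above about 55%, limit read from the data; inconclusive = mean below that limit but half or more replicates reach it; inactive = mean below it, under half of replicates reach it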;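 note: signal also drops with host cell toxicity which is not excluded here; 0% = plate median of DMSO wells and 100% = zero luminescence signal; higher percent means less beta-gal luminescence so fewer parasites; stock transfer was 50 nL into about 50 µL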
AF4-AF9 inh: inhibitors of human MLL-AF4/AF9 interaction; AID 651704; 0.47% of 350,000 active; inhibition, % at 10 µM; P42568; AlphaScreen, biotin-AF4 peptide binding to FLAG-AF9;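 active = every replicate reaching a set inhibition limit, whatever the replicate mean, cut at about 25% in these data; inconclusive = mean inhibition reaches that limit but some replicates miss it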;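 note: 0% = plate neutral control median and 100% = total signal loss; the record names both 10 and 1 µM as test concentration; the first replicate is given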
Target sequence (P42568 whole entry, looked up): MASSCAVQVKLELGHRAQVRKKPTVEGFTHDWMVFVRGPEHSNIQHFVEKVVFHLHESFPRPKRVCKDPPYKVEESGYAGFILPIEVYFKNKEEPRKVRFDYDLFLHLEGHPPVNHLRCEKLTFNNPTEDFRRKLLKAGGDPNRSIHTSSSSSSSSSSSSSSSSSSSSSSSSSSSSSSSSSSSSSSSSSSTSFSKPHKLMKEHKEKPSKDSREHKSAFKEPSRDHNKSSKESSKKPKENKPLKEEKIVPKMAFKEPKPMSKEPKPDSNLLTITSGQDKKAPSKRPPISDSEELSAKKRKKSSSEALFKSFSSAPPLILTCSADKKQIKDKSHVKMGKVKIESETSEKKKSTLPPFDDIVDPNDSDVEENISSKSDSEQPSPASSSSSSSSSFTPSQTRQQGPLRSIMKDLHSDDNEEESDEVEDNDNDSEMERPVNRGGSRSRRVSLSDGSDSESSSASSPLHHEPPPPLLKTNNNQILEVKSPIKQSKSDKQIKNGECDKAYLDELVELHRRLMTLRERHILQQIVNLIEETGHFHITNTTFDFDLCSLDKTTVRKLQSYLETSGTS
Calb FLC: affects C. albicans growth with fluconazole; C. albicans CaCi-2 (fluconazole-resistant clinical isolate) + fluconazole, Alamar Blue growth, 48 h; growth inhibition, % (no concentration beside the values); 0.57% of 300,000 active; AID 1979;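 active = most replicates above 75%; inconclusive = exactly half above 75%; inactive = most below 75%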;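 note: all wells also contain fluconazole at 8 µg/ml as a sub-toxic cotreatment; 0% = median of DMSO wells and 100% = median of geldanamycin control wells; wells of about 8 µL received 7.5 nL stock; the first replicate is given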
Vif TR-FRET: HIV-1 Vif–A3G interaction blockers – biochemical, TR-FRET, GST-Vif 1-94, biotin-A3G peptide, dose response retest, primary screen (AID 1117319); 0.57% of 260,000 active; inhibition, %; hits with a dose series show IC50 in µM; TR-FRET GST-Vif / biotin-A3G peptide binding; higher % means a stronger effect; test concentration not given here; strong numbers were not always called active;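 active = above the screen mean plus three standard deviations and confirmed in dose response; inconclusive = results disagree or hit not tested in dose response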;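 note: Vif residues 1-94 fused to GST binding biotinylated APOBEC3G peptide 110-148; 0% = full assay without inhibitor and 100% = GST in place of GST-Vif; retest series ran down from 100 µM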
Bfl-1 A1 inh: inhibitors of the anti-apoptotic protein A1, read as caspase activation; MEF A1-2A-BIM cells, Caspase-Glo 3/7 luminescence, 3 h; percent of clofoctol response, vehicle zero; caspase activation, % (test concentration not listed); 0.066% of 330,000 active;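 active = over half of replicate activation scores above 10%, or exactly half above 10 with the replicate mean above 10; inconclusive = replicate mean below 10 yet half the replicates above 10; inactive = over half of replicates below 10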;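 note: wells of about 30 µL received 50 nL stock; many hits fall short of the cut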
Beta apoptosis: beta cell apoptosis inhibition | INS-1E cytokine-induced death, ATP luminescence, 48 h; percent of positive-control rescue, neutral wells zero | protection from apoptosis, % (no concentration beside the values) | 0.8% of 300,000 active | AID 435005;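 active = all replicates at 75% or more, or half of them and the mean; inconclusive = half reach 75% but not the mean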;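 note: 0% = cytokine-treated negative control wells and 100% = positive control rescue; higher means more ATP so stronger rescue from cytokine killing; wells of about 40 µL received 100 nL stock; the first replicate is given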
Ecoli rRNA inh: inhibits bacterial ribosomal RNA function over humanized ribosomes; E. coli WT GFP vs humanized-ribosome RFP mutants, fluorescence, 24 h; stronger effect = lower value; DMSO median 0, no signal -100; GFP signal change (wild-type ribosome), % (no concentration beside the values); 1.6% of 350,000 active;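 active = significant combined selectivity score with lowered wild-type GFP, culture density cut under 30%, mutant RFP and density less affected; inactive = any of these conditions unmet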; note: one replicate is shown; some compounds called inactive have numbers as strong as hits
RanGTP-Impb inh: disruptors of Ran-importin-beta complex formation – biochemical, FRET, CFP-Ran, YFP-importin-beta, homogeneous, primary screen; cell-free CFP-Ran/YFP-importin-beta FRET ratio; AID 2216; inhibition, % (test concentration not listed); 1.1% of 300,000 active;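 active = most replicates above 15%; inconclusive = exactly half above 15%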;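 note: 0% = DMSO wells and 100% = Ran loaded with GDP instead of GTP; wells of about 40 µL received 100 nL stock; the first replicate is given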
Ecoli rRNA inh OD600: recorded beside Ecoli rRNA inh, whose call it bears; OD600 change, %; measured here: OD600 growth;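 optical density of the mix in the first replicate; 0 = DMSO median and -100 = no signal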
Ecoli rRNA inh RFP: second read-out of Ecoli rRNA inh, no call of its own (marks repeat the call); RFP signal change, %; measured here: RFP humanized mutant strains;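 first replicate; 0 = DMSO median and -100 = no signal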
* marks the source's active call; other numbers are inactive results; ? = inconclusive; · = no result given; & = joins results of further samples. An excerpt. The share of hits here may be higher or lower than overall.

SMILES	T cruzi inh	AF4-AF9 inh	Calb FLC	Vif TR-FRET	Bfl-1 A1 inh	Beta apoptosis	Ecoli rRNA inh	Ecoli rRNA inh OD600	Ecoli rRNA inh RFP	RanGTP-Impb inh
C[C@]12CC[C@@H]3c4ccc(OS(=O)(=O)O)cc4CC[C@H]3[C@@H]1CCC2=O	6&-35	-1.2&-6.3	·	24%	-0.5&0.3&1.2	-7&-2&-4	-7	-9	-3.2	2.2&-3.8
O=C1CCCC(O)=C1N=Nc1ccc2c(c1)OCO2	-7	5.2	19	?	-1.4	4	3	8	-1.5	-1.9
CC1(c2ccc(OC(F)F)cc2)NC(=O)N(CC(=O)NCCC2=CCCCC2)C1=O (centres undefined)	·	0.4	·	-1%	-0.3	1	·	·	·	·
O=C(COC(=O)CNC(=O)c1ccc(Cl)cc1Cl)Nc1cccc(S(=O)(=O)N2CCCC2)c1	-8	-9.5	-8	·	-0.2	·	-3	11	4.6	6.7
CCC1CCCCN1C(=O)c1cccc(S(=O)(=O)Nc2cc(C(F)(F)F)ccc2Cl)c1 (centres undefined)	1	-9.8	11	-1%	3.1	1	-31	-32	30	0.1
O=C(NCC1CCCN(Cc2ccc3nonc3c2)C1)c1cccc(C(F)(F)F)c1 (centres undefined)	58*	4.9	9	-1%	-0.5	4	-9	-7	0.2	-4.3
CC12CCC(=O)N1C(C(=O)NNC(=O)c1cccc(Cl)c1)CS2 (centres undefined)	-1	-4.8	-4	-4%	0.1	0	0	7	-2.7	-1.3
Cn1cc(S(=O)(=O)N2CCN(c3ccccc3)CC2)c(=O)n(C)c1=O	-5	0.0	-2	-2%	-0.1	0	9	13	-1.2	-3.9
CCOC(=O)c1ccc(NC(=S)N(Cc2cccnc2)Cc2ccco2)cc1	55*	3.8	1	1%	-0.8	-4	-7	-19	0.5	2.7
COc1cc(NC(=S)NC(=O)c2ccccc2C)ccc1NC(=O)c1cccs1	-2	·	-3	-2%	0.7	9	·	·	·	5.9
Cc1ccc(S(=O)(=O)N(C)CCCC(=O)Nc2ccccn2)cc1	-4	-37	1	·	0.9	-11	-5	-7	4.9	-0.4
O=C(Cc1ccccc1)NCC(=O)N1CCC1	-3	1.3	-12	·	1.4	-6	6	12	-2.7	4.8
O=C(NNc1cccc(Cl)n1)Nc1ccccc1Cl	5	·	-8	7%	1.0	2	·	·	·	-1.7
c1ccc(Cn2nnc3c(NCc4ccc5c(c4)OCO5)nc(C4CC4)nc32)cc1	16	·	-3	21%	1.0	14	·	·	·	-0.2
CN(C)C(=O)c1cc(C(=O)c2ccccc2F)c[nH]1	3	-9.0	6	-1%	0.9	-8	6	10	0.9	-0.3
COc1ccc(Cl)cc1N1C(=O)C2CCCN2C1c1cccc(F)c1 (centres undefined)	7	0.9	6	-2%	0.1	-4	5	0	-1.0	-3.4
COc1ccccc1CC(=O)N1CCN(c2ccccc2)CC1	-8	4.1	-10	·	-0.1	8	-6	-9	-2.5	1.7
CCCCNC(=S)NNC(=O)c1csc(CC)c1	-8	·	-1	·	-0.4	0	·	·	·	2.1
CC(=O)Nc1cccc(NC(=O)/C=C/c2ccc(S(=O)(=O)N3CCOCC3)cc2)c1	·	1.7	·	0%	0.7	1	-13	-7	1.8	·
COc1ccc(-n2c(Cc3cccn3C)nnc2SCC(=O)Nc2nccs2)cc1	2	8.2	4	33%	0.6	-8	3	4	2.2	0.2
Cc1ccc(N(Cc2cc3ccc(C)cc3[nH]c2=O)S(C)(=O)=O)c(C)c1	1	-14	11	0%	-0.3	1	-14	-9	2.2	?
CCOc1ccc(NC(=O)CN2CC(c3ccccc3)CC2=O)cc1 (centres undefined)	0	6.1	1	23%	-0.1	-3	-3	-2	0.3	1.1
C=CCNCc1cccn1-c1ccccc1	-26	·	-7	2%	-0.2	-5	10	7	-2.1	?
CCc1nnc(NC(=O)CN2CCN(Cc3ccc(C)cc3)CC2)s1	?	4.5	-7	·	-1.0	-4	9	8	4.3	-4.0
Cc1ccc(Nc2cc(C)nc3ccccc23)c(C)c1	49	-2.9	1	·	0.9	24	-6	-19	-4.7	-1.2
c1c2c(cc3sc(N4CCOCC4)nc13)OCCO2	-2	·	-6	9%	-14	7	·	·	·	23*
O=C(CCCn1c(=S)[nH]c2ccc(Br)cc2c1=O)NCC1CCCO1 (centres undefined)	-1	·	7	-7%	-0.4	-1	·	·	·	3.3
CC(=O)C1=C(O)C(=O)N(CCCn2ccnc2)C1c1ccc(C)cc1 (centres undefined)	-3	-52	3	4%	0.5	-3	6	4	-1.7	-0.8
CNC(=O)c1ccsc1NC(=O)c1ccc(S(=O)(=O)N2CCCc3ccccc32)cc1	57*	8.2	-1	·	-0.2	13	-3	1	5.7	-3.4
C=CC[C@@H](Cc1ccc(F)cc1)C(=O)OC[C@H]1CCCN1C(=O)[C@H](CC=C)CC(=O)N[C@H](CO)Cc1ccccc1	·	-2.1	·	·	0.5	-2	-20	-45	40	·
Cc1ccc(CNC(=O)CNS(=O)(=O)c2cccc3nsnc23)cc1	-10	·	-4	11%	0.1	1	·	·	·	0.0
COc1ccc(NC(=O)Cn2nnc(C(=O)NCc3cccs3)c2N)cc1	-12	-9.2	1	2%	0.1	·	16	15	2.2	9.3
Cc1cc(NC(=O)c2ccco2)ncc1NC(=O)Cc1ccccc1	6	·	0	19%	-1.1	1	·	·	·	?
Cc1cccc(NC(=O)c2cccc3c2-c2ccccc2C3=O)n1	4	0.5	-46	0%	0.3	3	15	10	-1.2	6.9
O=C(COC(=O)/C=C/c1cccc(Cl)c1)NC(=O)NCc1ccccc1	·	-8.7	·	6%	-0.2	-5	9	1	-2.0	·
Cc1ccccc1OCC(=O)OCC(=O)NCc1ccc2c(c1)OCO2	·	-2.4	·	0%	0.6	-6	4	10	-1.1	·
CC(C)(C)c1ccc(-c2nnc(SCC(=O)NCC3CCCO3)n2N)cc1 (centres undefined)	·	-5.8	·	·	0.2	1	1	3	0.5	·
N#C/C(=C\c1ccc(Cl)cc1)c1nc2ncccc2[nH]1	5	·	-2	18%	0.7	12	·	·	·	36*
c1ccc(Cc2ccc(OCCCNC3CCCC3)cc2)cc1	67*	·	-2	-3%	1.0	1	·	·	·	2.0
NC(=O)N/N=C/c1cn(-c2ccccc2)nc1-c1cccnc1	-5	·	0	-5%	-0.6	7	·	·	·	?
COc1ccc(F)cc1S(=O)(=O)N1CCN(C(=O)c2ccco2)CC1	11	-3.1	-5	·	-0.2	-7	14	2	0.3	3.9
O=C(N=C1SC2CS(=O)(=O)CC2N1c1cccc(Cl)c1)C1CCCO1 (centres undefined)	-2	0.5	-4	·	-0.1	-3	7	8	-2.4	2.3
O=C(CSCc1nc2c(nnn2Cc2ccc(F)cc2)c(=O)[nH]1)Nc1c(Cl)cc(Cl)cc1Cl	13	0.1	-15	-5%	0.0	-5	·	·	·	2.2
Nc1c(NCCc2ccccc2)c2ccccc2oc1=O	6	2.3	8	-2%	1.0	7	3	-3	1.1	-0.6
Cc1ccccc1-c1cc(C(=O)NCc2ccc(OC(F)(F)F)cc2)nn1CC1CC(c2cccc([N+](=O)[O-])c2)=NO1 (centres undefined)	·	5.2	·	·	-0.8	-2	10	14	-4.5	·
CCN(CC)S(=O)(=O)c1ccc(C(=O)OCC(=O)Nc2sc3c(c2C#N)CCCCC3)cc1	-4	·	0	7%	0.5	-1	·	·	·	-0.6
CCCCN(CC)CCNC(=O)CCC(=O)Nc1ccc2nc(N3CCN(C)CC3)cc(C)c2c1	39	6.1	2	-14%	0.0	-4	2	4	-5.5	-2.0
COc1cccc(N2CCN(c3ncnc4c3[nH]c3ccccc34)CC2C)c1 (centres undefined)	?	·	-2	-3%	0.2	58	·	·	·	9.0
N#CCCN(CC(=O)O)S(=O)(=O)c1ccccc1	-9	·	45	-5%	-0.2	-4	·	·	·	0.7
O=C(Nc1ccc(Nc2ccccc2)cc1)N1CCOCC1	3	·	6	?	0.6	1	·	·	·	?
CCCCCn1c(=O)[nH]c2cc(C(=O)NC3CCN(Cc4ccccc4)CC3)ccc2c1=O	35	-29	0	·	-0.5	7	1	-4	-8.9	-2.7
CC1(c2ccc(OC(F)F)cc2)NC(=O)N(CC(=O)NC2CCCCC2)C1=O (centres undefined)	17	·	-1	-3%	-0.8	-7	·	·	·	-2.0
O=C(NCC1CCCO1)c1cc(-c2ccc(F)cc2)no1 (centres undefined)	-14	-7.6	8	?	-0.6	15	10	-2	-2.5	-2.9
Cc1cc(C)c2cc(C(=O)Nc3ccccc3)[nH]c2c1	9	-0.2	-4	·	-0.3	4	·	·	·	3.1
O=S(=O)(Nc1ccc2[nH]ncc2c1)c1ccccc1Cl	4	1.0	7	·	0.5	-6	0	2	3.7	4.1
O=C(COc1ccccc1Cl)N(Cc1cccs1)C1CCS(=O)(=O)C1 (centres undefined)	4	-5.4	5	·	0.7	-6	3	3	-2.5	3.4
O=C1CCS/C(=N\N=C\c2ccc(Cl)cc2Cl)N1	-3	-0.6	-3	4%	-2.1	-9	7	8	0.4	1.4
COC(=O)C1C2C=CC3(CN(C(C)c4ccc(OC)cc4)C(=O)C13)O2 (centres undefined)	8	·	5	-2%	0.1	-2	0	15	-1.1	12
COc1ccc(N(CC(=O)N2CCc3ccccc3C2)S(=O)(=O)c2c(C)nn(C)c2C)cc1	·	4.7	·	14%	-1.3	0	1	1	-0.2	·
CCN(C(=O)CSc1nc(C)nc2sc(C)c(C)c12)C1CCS(=O)(=O)C1 (centres undefined)	·	-0.3	·	8%	1.3	4	13	7	1.3	·

Next part:
SMILES	T cruzi inh	AF4-AF9 inh	Calb FLC	Vif TR-FRET	Bfl-1 A1 inh	Beta apoptosis	Ecoli rRNA inh	Ecoli rRNA inh OD600	Ecoli rRNA inh RFP	RanGTP-Impb inh
CC(=O)N1CCN(C(=O)C2CCN(S(=O)(=O)c3ccccc3C(F)(F)F)CC2)CC1	·	-3.7	·	3%	-0.2	-4	9	4	5.4	·
Cc1[nH]c2ccc(Br)cc2c(=O)c1CN1CCCCCC1	0	12	1	-13%	-0.4	3	6	8	2.9	-0.1
COc1ccc(-c2nc3c(c(=O)c4ccccc4n3C)c(=O)n2Cc2ccccc2)cc1	20	2.2	-28	·	0.0	3	·	·	·	-1.5
CC(C)COc1ccc(C(=O)N(CC(=O)Nc2ccccc2C(F)(F)F)Cc2ccco2)cc1	6	-23	-3	9%	0.2	-5	-4	-13	-3.6	-0.8
